WNV NS2B-NS3 inh = blocks West Nile virus NS2B-NS3 protease activity. P06935. WNV NS2B-NS3 protease, fluorogenic substrate Ex360/Em465; hits give low values. z-score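 (tested at a level between 10 and 100 µM)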. 65,000 compounds, 0.18% hits;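 active = z-score at -3 or under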;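 note: score is relative to mean and spread of the compound wells of a plate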
Target sequence (P06935 1371-1501 limits assumed): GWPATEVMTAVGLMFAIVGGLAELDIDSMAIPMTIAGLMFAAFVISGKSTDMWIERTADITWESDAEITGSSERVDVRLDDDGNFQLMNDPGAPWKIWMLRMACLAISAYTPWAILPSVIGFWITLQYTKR
Target sequence (P06935 1502-1679 limits assumed): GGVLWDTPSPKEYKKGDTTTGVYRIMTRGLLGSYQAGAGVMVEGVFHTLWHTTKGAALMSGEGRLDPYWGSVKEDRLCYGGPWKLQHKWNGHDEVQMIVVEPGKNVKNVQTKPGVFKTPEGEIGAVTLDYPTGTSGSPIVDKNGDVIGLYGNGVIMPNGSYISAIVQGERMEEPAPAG
Hsc70 = small molecules displacing fluorescent ligand from Hsc70 – biochemical, fluorescence polarization, primary screen (AID 568); 83,000 tested, under 10 active; Hsc70 fluorescence polarization, probe displacement; higher % means a stronger effect; strong numbers were not always called active; displacement, % at 20 µM, or IC50 in µM where a hit was titrated;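 active = displacement above 50% without optical interference and an IC50 on retest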;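 note: ATPase domain with a fluorescein-tagged ATP probe; 0% = vehicle and 100% = excess ADP; read after one hour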
MT1-MMP reporter = inhibitors of MT1-MMP promoter transcription, cell-based, luciferase reporter, luminescence (AID 618) | MT1-MMP promoter luciferase reporter cells, luminescence | calls from a first round at 10 µM; hits with a dose series show EC50 in µM | 87,000 compounds, 0.62% hits;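 active = over half of the reporter light lost at 10 µM or EC50 under 50 µM; inactive = the rest and hits that failed the dose series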;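 note: actives suppress MT1-MMP promoter-driven transcription so potencies describe inhibitors; HT1080 fibrosarcoma cells; overnight exposure; toxic or luciferase-blocking compounds were not removed from the actives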
Starred values were filed as active, the others as inactive; i = inactive; / = no result given. Only part of the results is shown (hit frequency here may not be typical).

SMILES	WNV NS2B-NS3 inh	Hsc70	MT1-MMP reporter
CCC(=Nc1ccc(OC)cc1OC)c1c(O)[nH]c(=O)[nH]c1=O	0.74	2.4%	i
Cc1cc(C)n(CCOC(=O)C2C(C=C(Cl)Cl)C2(C)C)n1 (centres undefined)	-1	3.8%	i
CCCCP(=O)(O)CCC(=O)O	-0.58	-0.1%	i
O=c1cccc2n1CC1CC2CN(Cc2c(F)cccc2Cl)C1 (centres undefined)	-0.05	11%	i
O=C(Nc1cccc(Cl)c1)c1c(O)c2c(n(Cc3ccco3)c1=O)CCCC2	1.1	-5.6%	i
CC12CC(c3ccccc3O1)C(C(=O)OCc1ccccc1)C(=O)N2 (centres undefined)	2.5	-0.2%	i
O=c1[nH]c(=O)n(C2CCCCCC2)c(O)c1C=NC1CCN(Cc2ccccc2)CC1	-1.2	-5.8%	i
COc1ccc2nc(NC(=O)CCc3nc(C4=CCN(C)CC4)no3)sc2c1	0.74	-1.3%	i
COc1ccc(OCC(=O)N2CCN(CC3CC4C=CC3C4)CC2)cc1 (centres undefined)	0.3	-2.6%	i
COP(=S)(OC)SCN1C(=O)c2ccccc2C1=O	1.8	-1.9%	i
CN1CCN(c2ccc(NC(=O)C(C)(C)C)cc2)CC1	-0.27	-2.9%	i
CCC(=Nc1cc(OC)ccc1OC)c1c(O)[nH]c(=O)[nH]c1=O	/	1.6%	i
C=CCn1c(O)c(C(C)=NCc2cccnc2)c(=O)[nH]c1=O	-1.1	-3.6%	i
CC(=NCC1CCCO1)c1c(O)n(-c2ccc(C)cc2)c(=O)[nH]c1=O (centres undefined)	/	2.7%	i
C=CCn1c(O)c(C(C)=NCCCN2CCOCC2)c(=O)[nH]c1=O	/	2.7%	i
O=C(CCC(=O)N1CCC2(CC1)OCCO2)Nc1nnc(C(F)(F)F)s1	-0.42	3.4%	i
CC1(C)C(C(=O)NCc2ccco2)C1(C)C	0.97	2.7%	i
Clc1ccc2c(c1)C(c1ccccc1Cl)=NCc1nncn1-2	/	-4.2%	i
CCOC(=O)C1CCN(C(C)C(=O)c2c(C)[nH]c3cc(C)ccc23)CC1 (centres undefined)	-0.62	3.1%	i
CC1(C)C2([N+](=O)[O-])CNCC1([N+](=O)[O-])CNC2	/	1.3%	i
O=P(C(c1ccc2c(c1)OCO2)N1CCOCC1)(N1CCOCC1)N1CCOCC1 (centres undefined)	-1.2	-10%	i
COc1ccccc1N1CCN(Cc2cccc(OC)c2O)CC1	1.9	0.9%	i
CC(C)NC(=O)Cn1cc(C(=O)c2ccccc2F)c2ccccc21	/	1.6%	i
O=C1CN=C(c2ccccc2)c2oc3ccc(Br)cc3c2N1	0.13	-5.8%	i
CC(=NCCO)c1c(O)n(C)c(=O)n(C)c1=O	0.86	-2.6%	i
N=c1sc2c(n1Cc1ccccc1)CCCC2	-0.57	6.8%	i
Cc1cc(OCc2nn[nH]n2)c2c3c(c(=O)oc2c1)CCCC3	-0.61	-3.5%	i
CCCCCCN=C(C)c1c(O)n(Cc2ccccc2)c(=O)[nH]c1=O	/	1.5%	i
CCCCOC(=O)C1=C(N)OC2=C(C(=O)CCC2)[C@]12C(=O)N(C)c1ccccc12	0.2	-1.1%	i
NC(=O)C1(N2CCCCC2)CCN(Cc2ccccc2)CC1	1.8	-1.0%	i
C[C@]12CCC(=O)C=C1CC[C@@H]1[C@@H]2CC[C@]2(C)C(=O)CC[C@@H]12	-0.12	-2.8%	i
Cc1nonc1-c1nc(-c2nonc2N)n[nH]1	-1.1	-0.8%	i
C=CP(=O)(O)c1ccccc1	-0.98	-1.6%	i
CCN1CCN(c2ncnc3ccc(Br)cc23)CC1	-0.02	0.0%	i
CC1(c2ccccc2)NCCN2C(=O)CSC21 (centres undefined)	-1.2	2.9%	i
COc1cc2c(cc1OC)-c1c(OC)c(OC)cc3c1C(C2)N(C)CC3 (centres undefined)	1.6	8.4%	i

Record cards (already shown). Order of values: WNV NS2B-NS3 inh, Hsc70, MT1-MMP reporter
`Cc1cc(OCc2nn[nH]n2)c2c3c(c(=O)oc2c1)CCCC3` is listed with -0.61, -3.5%, i
`C=CP(=O)(O)c1ccccc1` is listed with -0.98, -1.6%, i
`CCN1CCN(c2ncnc3ccc(Br)cc23)CC1` is listed with -0.02, 0.0%, i
`N=c1sc2c(n1Cc1ccccc1)CCCC2` is listed with -0.57, 6.8%, i
`Cc1nonc1-c1nc(-c2nonc2N)n[nH]1` is listed with -1.1, -0.8%, i

Pulled by compound from above, 3 records:
SMILES	WNV NS2B-NS3 inh	Hsc70	MT1-MMP reporter
NC(=O)C1(N2CCCCC2)CCN(Cc2ccccc2)CC1	1.8	-1.0%	i
C[C@]12CCC(=O)C=C1CC[C@@H]1[C@@H]2CC[C@]2(C)C(=O)CC[C@@H]12	-0.12	-2.8%	i
CCCCOC(=O)C1=C(N)OC2=C(C(=O)CCC2)[C@]12C(=O)N(C)c1ccccc12	0.2	-1.1%	i

The main list resumes, repeating the 3 entries before the break.
SMILES	WNV NS2B-NS3 inh	Hsc70	MT1-MMP reporter
CCN1CCN(c2ncnc3ccc(Br)cc23)CC1	-0.02	0.0%	i
CC1(c2ccccc2)NCCN2C(=O)CSC21 (centres undefined)	-1.2	2.9%	i
COc1cc2c(cc1OC)-c1c(OC)c(OC)cc3c1C(C2)N(C)CC3 (centres undefined)	1.6	8.4%	i
O=C(Cc1ccccc1)OCCN1CCCCC1	0.48	7.7%	i
C=CCn1c(O)c(C(C)=Nc2ccc(NC(C)=O)cc2)c(=O)[nH]c1=O	-0.74	-0.1%	i
CC(=NCCO)c1c(O)n(C2CCCCC2)c(=O)[nH]c1=O	0.01	-0.2%	i
[O-][n+]1onc2c1CCC1N(O)CCC21O (centres undefined)	0.66	3.9%	i
O=P(NS(=O)(=O)c1ccc(Cl)cc1)(Oc1ccccc1)Oc1ccccc1	/	1.6%	i
CC1(C)N(O)C2CCCCC2N1O (centres undefined)	1.3	0.8%	i
CCCOc1ccccc1C1SCC(=O)Nc2c1c(=O)[nH]n2C(C)CCC (centres undefined)	-0.49	-7.7%	i
C/C(=N/OC(=O)N(C)C)c1ncc(C(F)(F)F)cc1N1CCOCC1	/	3.4%	i
C=CCn1c(O)c(C(C)=NCCCO)c(=O)[nH]c1=O	-0.05	-0.6%	i
COc1cccc(-n2nc(C(=O)N3CCC4(CC3)OCCO4)c3ccccc3c2=O)c1	1.8	-5.0%	i
CN=C(SCc1cc2c(cc1Cl)OCO2)c1c(O)n(C)c(=O)n(C)c1=O	-0.51	-12%	i
Cc1ccc2c(c1)CC1(CN2C)C(=O)NC(=O)N(c2ccc(C)c(C)c2)C1=O (centres undefined)	1.6	6.1%	i
CN1C(=O)C(C2c3ccccc3C(=O)N2Cc2ccccc2)C(=O)N(C)C1=O (centres undefined)	0.84	0.8%	i
CN1CCN(C(=O)COc2ccc(S(=O)(=O)NCc3ccccc3)cc2Cl)CC1	/	-0.3%	i
O=C(CN1C(=O)CN=C(c2ccccc2)c2ccccc21)NCc1ccco1	0.37	-0.1%	i
O=C(c1ccco1)C12CN3CN(CN(C3)C1)C2	0.68	-0.4%	i
Cc1ccc(-c2cc(C(F)F)n3ncc(C(=O)N4CCC5(CC4)OCCO5)c3n2)cc1	/	-3.1%	i
CCCCn1c(O)c(C(C)=NCCCN(CC)CC)c(=O)[nH]c1=O	-0.47	4.3%	i
CC(C)NC(C)C(=O)C12CC3CC(CC(C3)C1)C2 (centres undefined)	/	4.2%	i
O=c1[nH]c(=O)n(Cc2ccc(F)cc2)c(O)c1C=NCc1cccnc1	-0.03	2.3%	i
Cn1c(O)c(C(=O)c2ccccc2Cl)c(=O)n(C)c1=O	0.28	5.2%	i
O=c1[nH]c(CN2CC=C(c3ccccc3)CC2)nc2cc(C(F)(F)F)ccc12	/	-2.2%	i
O=P(C(=Nc1ccc(Cl)cc1)N1CCOCC1)(N1CCOCC1)N1CCOCC1	/	1.2%	i
CC1CCC(NCC(O)c2ccccc2)CC1 (centres undefined)	/	7.0%	i
O=C(C1CCCN(S(=O)(=O)c2cccc3nsnc23)C1)N1CCC2(CC1)OCCO2 (centres undefined)	-0.46	-0.6%	i
C=CCn1c(O)c(C(C)=Nc2ccc(N(CC)CC)cc2)c(=O)[nH]c1=O	0.3	-0.6%	i
O=c1c2ccccc2[se]n1-c1ccccc1	0.27	-1.9%	i
O=C(Cn1cc(C(=O)c2ccccc2F)c2ccccc21)NCc1ccco1	0.65	4.6%	i
CC(C)N1CC=C(c2c[nH]c3ccccc23)CC1	1.4	4.1%	i
c1ccc2c(CCNC3=NCCC3)c[nH]c2c1	-0.52	-2.9%	i
CCOC(=O)c1cncn1C(C)c1ccccc1 (centres undefined)	2.9	-1.5%	i
CCOC(=O)C1=C(N)OC(C)=C(C(=O)OCCOC)C12C(=O)Nc1ccccc12 (centres undefined)	0.36	-1.7%	i
O=C(Cn1ncc2c3ccccc3n(Cc3cccc(Cl)c3)c2c1=O)N1CCC2(CC1)OCCO2	-1	-166%	i
COC(=O)c1c(N)n(Cc2ccc(OC)cc2)c2nc3ccccc3nc12	1.6	-1.1%	i
CC1(C)CSC(Nc2ccc(F)c(Cl)c2)=N1	-0.24	2.8%	i
O=C1C2(c3ccccc3)CN3CN(C2)CC1(c1ccccc1)C3	/	2.2%	i
O=C(c1csc2c1CCCCC2)N1CCC2(CC1)OCCO2	-0.67	-0.1%	i
CSC1=NP(=S)(SC)N2CCCC2=C1C#N (centres undefined)	-0.1	-7.1%	i
CCCCCn1c(N)c(C(=O)NCc2cccs2)c2nc3ccccc3nc21	/	2.4%	i
COc1ccc(S(=O)(=O)NC(CC(=O)N2CCC3(CC2)OCCO3)c2ccco2)cc1 (centres undefined)	1.3	5.1%	i
CCCNC(=O)c1c(N)n(Cc2ccco2)c2nc3ccccc3nc12	/	4.5%	i
CC(=NCCCN1CCCCC1)c1c(O)n(Cc2ccccc2)c(=O)[nH]c1=O	-0.97	1.2%	i
CC12CN3CCN(C1)CC(C)(C3)C2=NO	/	-2.2%	i
COc1cc(/C=C2\C(=O)NC(=O)N(c3ccccc3)C2=O)cc(OC)c1OC	/	3.2%	i
O=C(c1cccs1)c1cn(Cc2ccccc2Cl)c2ccccc12	/	1.6%	i
O=C(CCCn1c(=O)[nH]c2cc(Cl)ccc2c1=O)N1CCC2(CC1)OCCO2	-0.11	7.2%	i
CCN1c2nc3ccccn3c(=O)c2CC2(C(=O)N(C)C(=O)N(C)C2=O)C1C (centres undefined)	-1.1	-0.6%	i
CC(C)Cc1[nH]c(=O)c(C#N)c2c1CCC2	0.12	-3.9%	i
CCCCn1c(C)c(C(=O)OCC)c2c(CN3CCOCC3)c(O)ccc21	-0.2	4.2%	i
CCn1c(=O)n(CC(=O)N2CCC3(CC2)OCCO3)c(=O)c2ccccc21	-0.33	-0.4%	i
COc1ccc(NC(=O)CN2C3CCC2CC(O)(c2cccnc2)C3)cc1OC (centres undefined)	1.1	-9.5%	i
Oc1cc2c(cc1CN1CCN(c3ccccc3)CC1)CCC2	-1.4	1.5%	i
CC1(C)NCCN2C(=O)CSC21 (centres undefined)	-1.4	6.1%	i
N=Cc1c(O)n(-c2cccc(Cl)c2)c(=O)[nH]c1=O	0.62	-5.4%	i
CN(C)C(=O)Oc1ccc(C(=O)c2ccccc2)cc1	-0.67	-4.1%	i
CCCCn1c(O)c(C=NCCCN(CC)CC)c(=O)[nH]c1=O	-0.19	-3.0%	i

Screens as filed in PubChem.
